# 3T3 cytotox: Cytotoxic Profiling in NIH 3T3 Cell Line of Diverse Libraries Using Quantitative High-Throughput Screening | NIH 3T3 viability, CellTiter-Glo ATP luminescence, 48-72 h | Potency, µM (top dose mostly 96.7 µM), without a hit: top-dose activity change, negative = cytotoxicity, usual class: inhibitors | 4.3% of 94,000 active | AID 1345082, 2018; further: potency means the concentration at half of the fitted maximal effect; nearly all actives have a fitted effect of over 55% in size
#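 Cytotoxicity was measured by CellTiter-Glo ATP luminescence after 48 or 72 h compound exposure at 37 °C. Mouse NIH 3T3 fibroblasts were seeded at 400 cells/well and dosed by 23 nL pin transfer.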
# HEK293 tox: Cytotoxic Profiling in HEK 293 Cell Line of Diverse Libraries Using Quantitative High-Throughput Screening; HEK 293 viability, ATP luminescence (CellTiter-Glo), 48-72 h; Potency, µM (highest dose often 115 µM), for the others: at the top dose activity change, negative = cytotoxicity, most hits filed as inhibitors; 6.6% of 94,000 active; AID 1345083, 2018; further: potency means the concentration at half of the fitted maximal effect; nearly all actives have a fitted effect of over 60% in size
#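 Pintool-delivered compounds were incubated with HEK 293 cells (250 cells/well) at 37 degree Celsius for 48 or 72 hr. ATP-dependent luminescence (CellTiter-Glo) then reported remaining viable cells.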
# IP6K1 inh: Primary qHTS assay for small molecule inhibitors of Inositol hexaphosphate kinase 1 (IP6K1); Inositol hexakisphosphate kinase 1 (Homo sapiens), Q92551; IP6K1 kinase, ADP-Glo luminescence, 2 h; stronger effect = lower value; activity change, % (series mostly up to about 58 µM); 0.81% of 140,000 active; in the data active means activity change below about -25%
# Target sequence (Q92551 whole entry, looked up): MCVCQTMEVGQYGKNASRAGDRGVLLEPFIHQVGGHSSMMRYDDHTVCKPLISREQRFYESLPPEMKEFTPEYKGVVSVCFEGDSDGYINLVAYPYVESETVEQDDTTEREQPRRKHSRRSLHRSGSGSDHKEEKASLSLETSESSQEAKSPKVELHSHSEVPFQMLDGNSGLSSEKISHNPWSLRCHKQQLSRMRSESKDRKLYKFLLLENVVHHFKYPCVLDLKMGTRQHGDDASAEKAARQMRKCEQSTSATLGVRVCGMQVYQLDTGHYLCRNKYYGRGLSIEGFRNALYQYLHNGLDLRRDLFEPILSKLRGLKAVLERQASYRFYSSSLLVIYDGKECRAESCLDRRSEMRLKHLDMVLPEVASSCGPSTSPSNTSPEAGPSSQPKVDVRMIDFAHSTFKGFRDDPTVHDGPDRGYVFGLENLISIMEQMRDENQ
#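 ADP-Glo luminescence measures ADP made by human IP6K1 during a 2 h RT reaction with ATP/IP6 (mix at 1.3 mM/130 uM); top library doses 57.5 and 19.1 uM final.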
# SNCA viab count: GF-AFC viability counterscreen for inhibitors of alpha-synuclein gene (SNCA) expression | HEK-293-SNCA-luc viability, GF-AFC fluorescence, 24 h | Potency, µM (highest dose often 57.1 µM), inactives show top-dose activity change, negative = cytotoxicity, actives largely listed as cytotoxic | 0.12% of 150,000 active | AID 1671193, 2021;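 further: potency means the concentration at half of the fitted maximal effect; 0% = DMSO-treated cells and -100% = medium-only wells without cells; nearly all actives have a fitted effect of over 30% in size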
#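 HEK-293-SNCA-luc cells (1500/well) plated 24 h, then exposed 24 h to a dilution series; GF-AFC added 30 min at 37C, fluorescence 405/540 nm; normalised to medium-only and DMSO wells, Hill fit.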
# SNCA expr inh: Primary qHTS assay for inhibitors of alpha-synuclein gene (SNCA) expression; HEK-293 SNCA-luciferase knock-in, luminescence, 24 h; Potency, µM (doses to about 57.2 µM), inactives show top-dose activity change, negative = inhibition, most hits filed as inhibitors; 0.17% of 140,000 active;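 further: potency means the concentration at half of the fitted maximal effect; plate controls were DMSO cells for no effect and cell-free wells for full effect; nearly all actives have a fitted effect of over 45% in size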
# Luciferase inh: Firefly luciferase inhibition profiling of diverse chemical library using quantitative high-throughput screening | Luciferin 4-monooxygenase (Photinus pyralis), P08659 | purified P. pyralis luciferase, luminescence, biochemical | Potency, µM (series often up to 115 µM), for the others: at the top dose activity change, negative = inhibition, most hits filed as inhibitors | 2.5% of 76,000 active; further: potency means the concentration at half of the fitted maximal effect; nearly all actives have a fitted effect of over 65% in size
#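 Luminescence read by CCD imager after adding enzyme (10nM final) to wells holding compound, titrated in qHTS. Substrates 10uM each D-luciferin and ATP; buffer 50mM Tris acetate pH 7.5, 10mM Mg acetate, Tween-20, BSA.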
# Active calls of the source: *; i = inactive; ? = inconclusive; . = not tested or not shown; [ ] = dose if it differs, or a comment. Unless noted, the call rests on the fitted dose curve; in most records, active means well fitted curve in the direction sought with a large enough effect; inconclusive means small, poorly fitted or top-dose-only effect, or another doubt; inactive means no such curve, though single readings can be large; an effect the other way counts as inactive or inconclusive. Unless noted, on the % scale 0 is the no-effect control and ±100 the full control effect. Only part of the results is shown; the hit share may differ from the screen's.
entry	SMILES	3T3 cytotox	HEK293 tox	IP6K1 inh
1	CC1(C)CN(C(=O)c2ccc(Oc3ccccc3)o2)CC1(C)O (stereo unspecified)	-17.3%	-28.1%	-15.6
2	COc1ccc(C(C)NC(=O)CN2C(=O)C(c3ccccc3)=NC2(C)C)cc1 (stereo unspecified)	-8.4%	?	5.1
3	COCC(=O)Nc1ccc(-c2c(-c3cccc(OC)c3)nn(-c3ccccc3)c2OC(C)=O)cc1	?	-23.3%	15.1
4	COCCn1c(CNCc2ccc3c(c2)OCO3)nnc1C1CC(N)C1 (stereo unspecified)	4.0%	i	0.0
5	COc1ccc(NC(=O)c2cn3ccnc(-c4ccc(F)cc4)c3n2)cc1OC	-24.8%	?	16.7
6	COCCn1cc(CN2CCN(c3cccc(OC)c3)CC2)ccc1=O	?	?	-5.1
7	O=C(Nc1ccsc1)N[C@H]1C[C@H]2C(=O)NC[C@@H](CCC(=O)N3CCc4ccccc43)N2C1	-1.2%	2.5%	1.6
8	CCc1noc(CN2CCC3(CC2)CC(=O)N(CCCc2ccccc2)C3)n1	-0.3%	-22.9%	-8.2
9	CC(C)(C)C(=O)N1CC[C@@H](CC(=O)O)[C@@H](CCN2CCN(c3ccccc3)CC2)C1	i	2.4%[172 µM]	-12.9
10	Cc1cc(CN2CC(Oc3ccc(F)c(F)c3)C2)no1	-16.0%[138 µM]	-8.6%[172 µM]	-1.9
11	COC[C@H]1CCCN1C(=O)[C@@H](C)C1CC[C@@]2(C)CC[C@H](NC(=O)Cc3ccccc3)[C@@H](C)[C@@H]2[C@H]1O (stereo partly specified)	-21.7%	-17.4%	17.0
12	CCO[C@H]1CN(C(=O)c2cnn(Cc3ccccc3)c2)C[C@@H]1O	-6.4%	-8.0%	4.5
13	Cc1noc(C)c1S(=O)(=O)N1CCCC(Cc2noc(-c3ccncc3)n2)C1 (stereo unspecified)	?	?	7.6
14	O=C(NC1CCCC1)c1cc(CN2CCOCC2)on1	-20.8%	-7.1%	8.5
15	Cc1ccccc1C(=O)N1CCC2(CC1)OCC(C(=O)N1CCCC1)N2C(=O)c1ccc(F)cc1 (stereo unspecified)	-5.1%	-3.1%	5.9

entry	SNCA viab count	SNCA expr inh	Luciferase inh
1	4.6%	44.3%[activator]	?
2	-9.5%[12.5 µM]	-20.5%	-1.3%
3	-15.5%	-12.1%	?
4	-15.7%	?	-10.4%
5	-26.0%	12.9%	-14.3%
6	3.7%	-17.6%	2.6%
7	5.9%	-2.2%	-3.2%
8	-4.9%	-20.2%	-1.2%
9	-2.6%[87.6 µM]	8.4%[87.6 µM]	-2.1%[172 µM]
10	-4.8%[87.6 µM]	2.7%[87.6 µM]	.
11	-6.2%	35.2%[activator]	-2.5%
12	3.3%	3.8%	-4.6%
13	14.4%	-13.3%	-5.4%
14	-15.1%	?	-2.3%
15	-5.6%	-1.2%	-1.6%

# Next part.
entry	SMILES	3T3 cytotox	HEK293 tox	IP6K1 inh
16	O=C1c2c(nc(COc3ccc(F)cc3)n2Cc2ccccc2)NCCN1Cc1ccccc1	?	?	-10.5
17	O=C(c1cc(C2CC2)[nH]n1)N1CCC2(CC1)NC(=O)N(c1ccc(F)cc1)N2	?	?	7.7
18	NC(=O)[C@@H](Cc1ccccc1)NC(=O)C1=C[C@@H](NC(=O)c2ccco2)[C@@H](O)[C@H](O)C1	2.9%[174 µM]	-1.7%[172 µM]	-7.6
19	O=C(CN1C(=O)NC2(CCOCC2)C1=O)N1CCN(c2ccc(F)cc2)CC1	3.1%	-2.2%	13.9
20	CC(C)OCCCNc1ncnc2c1CN(C1CCCC1)C(=O)CN2C	-27.0%	-17.1%	12.8
21	O=C(CNC(=O)c1cccc(-c2ccsc2)c1)NC1CCC1	-19.2%[138 µM]	?	-1.0
22	COc1ccc(CNC(=O)CC[C@H]2CNC(=O)[C@@H]3[C@@H](CCN3C(C)C)N2C)cc1	2.0%[138 µM]	1.1%[172 µM]	-9.7
23	CC(C)OCCCNC(=O)C1Cn2cccc2C(=O)N1Cc1ccccc1 (stereo unspecified)	-12.8%	?	-4.1
24	CCc1nc(-c2c(-c3ccccc3)ncn2CCc2ccncc2)c(C)[nH]1	i	i	-3.2
25	O=C(Nc1cccc(Cl)c1)N[C@H]1C[C@H]2C(=O)NC[C@@H](CCC(=O)N3CCC(O)CC3)N2C1	-10.3%	-1.1%	6.4
26	NC1CCCN(c2cc(N3CCCC3)ncn2)C1 (stereo unspecified)	-4.2%	-23.8%	16.5
27	OCC1(CC2CC2)CCCN(Cc2ccccc2OC(F)F)C1 (stereo unspecified)	-18.0%	?	3.9
28	COc1cc(C)cc(-c2cc(C(=O)O)cc(S(=O)(=O)N3CCOCC3)c2)c1OC	4.3%	i	6.2
29	O=C1c2c(nc(COc3ccc(Cl)cc3)n2Cc2ccccc2)NCCN1CCOc1ccccc1	?	?	-4.4
30	CN(C)S(=O)(=O)N1CC(n2cnnc2C2CCCO2)C1 (stereo unspecified)	-12.1%	-14.8%	7.0

entry	SNCA viab count	SNCA expr inh	Luciferase inh
16	?	?	-0.2%
17	-7.5%	-27.1%	0.0%
18	2.8%[87.6 µM]	?	12.8%[172 µM]
19	-4.9%	8.6%	7.0%
20	9.7%	17.0%	.
21	2.0%[12.5 µM]	9.2%[87.6 µM]	.
22	6.3%[87.6 µM]	2.4%[87.6 µM]	-1.6%[172 µM]
23	-0.7%	7.7%	0.0%
24	-20.0%	6.7%	-0.1%
25	4.8%	4.5%	-7.1%
26	-6.2%	21.1%	8.6%
27	-9.6%	-9.3%	-1.0%
28	2.3%	-12.2%	9.8%
29	?	-14.1%	-2.3%
30	0.2%	4.6%	.

# Laid out differently: results already given
16: O=C1c2c(nc(COc3ccc(F)cc3)n2Cc2ccccc2)NCCN1Cc1ccccc1
17: O=C(c1cc(C2CC2)[nH]n1)N1CCC2(CC1)NC(=O)N(c1ccc(F)cc1)N2
18: NC(=O)[C@@H](Cc1ccccc1)NC(=O)C1=C[C@@H](NC(=O)c2ccco2)[C@@H](O)[C@H](O)C1
19: O=C(CN1C(=O)NC2(CCOCC2)C1=O)N1CCN(c2ccc(F)cc2)CC1
20: CC(C)OCCCNc1ncnc2c1CN(C1CCCC1)C(=O)CN2C
21: O=C(CNC(=O)c1cccc(-c2ccsc2)c1)NC1CCC1
22: COc1ccc(CNC(=O)CC[C@H]2CNC(=O)[C@@H]3[C@@H](CCN3C(C)C)N2C)cc1
23: CC(C)OCCCNC(=O)C1Cn2cccc2C(=O)N1Cc1ccccc1 (stereo unspecified)
24: CCc1nc(-c2c(-c3ccccc3)ncn2CCc2ccncc2)c(C)[nH]1
25: O=C(Nc1cccc(Cl)c1)N[C@H]1C[C@H]2C(=O)NC[C@@H](CCC(=O)N3CCC(O)CC3)N2C1
26: NC1CCCN(c2cc(N3CCCC3)ncn2)C1 (stereo unspecified)
27: OCC1(CC2CC2)CCCN(Cc2ccccc2OC(F)F)C1 (stereo unspecified)

compound no.	16	17	18	19	20	21	22	23	24	25	26	27
3T3 cytotox	?	?	2.9%[174 µM]	3.1%	-27.0%	-19.2%[138 µM]	2.0%[138 µM]	-12.8%	i	-10.3%	-4.2%	-18.0%
HEK293 tox	?	?	-1.7%[172 µM]	-2.2%	-17.1%	?	1.1%[172 µM]	?	i	-1.1%	-23.8%	?
IP6K1 inh	-10.5	7.7	-7.6	13.9	12.8	-1.0	-9.7	-4.1	-3.2	6.4	16.5	3.9
SNCA viab count	?	-7.5%	2.8%[87.6 µM]	-4.9%	9.7%	2.0%[12.5 µM]	6.3%[87.6 µM]	-0.7%	-20.0%	4.8%	-6.2%	-9.6%
SNCA expr inh	?	-27.1%	?	8.6%	17.0%	9.2%[87.6 µM]	2.4%[87.6 µM]	7.7%	6.7%	4.5%	21.1%	-9.3%
Luciferase inh	-0.2%	0.0%	12.8%[172 µM]	7.0%	.	.	-1.6%[172 µM]	0.0%	-0.1%	-7.1%	8.6%	-1.0%

# (continued)
entry	SMILES	3T3 cytotox	HEK293 tox	IP6K1 inh
31	Cc1nnsc1C(=O)N1CCCC(c2ccccc2)(c2ccccc2)C1	?	?	41.5
32	O=C(CSC12CC3CC(CC(C3)C1)C2)NC1CCCN(c2ncccn2)C1 (stereo unspecified)	-23.3%	?	-1.8
33	O=C(Cc1ccc(F)cc1)NC1CCN(c2cc(-c3ccccc3)[nH]n2)C1 (stereo unspecified)	?	-21.4%	12.4
34	CCNC(=O)[C@@H]1C[C@H](N)CN1C(=O)C(C)(C)Oc1ccc(C)cc1	0.4%	i	-4.4
35	CCN(Cc1ccncc1)Cc1cn(-c2ccccc2)nn1	-16.1%	?	6.6

entry	SNCA viab count	SNCA expr inh	Luciferase inh
31	-8.0%	-5.6%	0.5%
32	-0.7%	27.4%	-4.7%
33	5.4%	-23.9%	4.2%
34	-9.1%	-6.0%	1.1%
35	-3.7%	39.1%[activator]	-13.1%
